# Screens deposited in PubChem BioAssay by Broad Institute.
# Tgondii IFNg = T. gondii growth inhibition with IFN-gamma, primary screen, cell-based; Toxoplasma gondii growth in IFN-gamma-treated host cells; stronger effect = lower value; reference of the scale not given here; activity change, negative = inhibition, %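 (about 20 µM by stock and volumes)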; 69,000 tested, 3.8% active; AID 1259416, 2018;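 active = below -70%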;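 also: host cells are HeLa cells infected with Toxoplasma gondii; parasite growth read as luciferase light; one replicate is shown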
# * hit, by the source's call; i = inactive; & = joins results of further samples.
molecule	Tgondii IFNg
O=C(N/C=C/c1ccsc1)Sc1cc(C(F)(F)F)cc(C(F)(F)F)c1	48
Cc1cc(C)n(C2CCN(C(=O)c3cc(COc4ccccc4)[nH]n3)C2)n1 (stereo not given)	-2
Cc1c(Cl)cccc1NC(=O)N1CCCCC1CN1CCOCC1 (stereo not given)	0
Cn1cc(C(=O)NC2CCCC2)c(CC2CCN(C(=O)c3cc4ccccc4o3)CC2)n1	14
Cc1ccsc1C(=O)N1CCC2(C1)CN(c1cccc(F)c1)C(=O)CN2C (stereo not given)	-102*
c1ccc(Cc2noc(-c3ccc(N4CCN5CCCC5C4)nc3)n2)cc1 (stereo not given)	3
C[C@]12C=CC(=O)C=C1CCC1C3CC[C@](O)(C(=O)CO)[C@@]3(C)CC3OC312 (stereo not given in full)	-43
O=C1CC(Nc2cnc3ccccc3n2)CN1C1Cc2ccccc2C1 (stereo not given)	1
C[C@H]1CN([C@@H](C)CO)C(=O)c2ccccc2-c2ccccc2CO[C@@H]1CN(C)C(=O)CCC(F)(F)F	44
CC(=O)Nc1cccc(NC(=O)C(=O)NCCc2csc(-c3ccc(Cl)cc3)n2)c1	52
Cn1c(=O)c(-c2nc(-c3ccc(F)c(Cl)c3)no2)c(O)c2ccccc21	13
CO[C@@H](CN(C)C(=O)c1ccccc1F)[C@H](C)CN([C@@H](C)CO)S(=O)(=O)c1ccc(F)cc1	32
Cc1ccc(NC(=O)N2CCn3cnc(COCC4CC4)c3C2)cc1	25
CC(=O)Nc1ncc(S(=O)(=O)NCC2(c3ccccc3F)CCOCC2)s1	2
O=C(Nc1ccc(OCc2ccccc2)cc1)N1CCN(CCc2ccncc2)CC1	31
COc1cc(N)c(Cl)cc1C(=O)CCC1CCN(CCNS(C)(=O)=O)CC1	-8&3
CN1CCN2CCN(C(=O)c3cccc(N4CCNC4=O)c3)CC2C1=O (stereo not given)	-5
COc1ccc2c3c([nH]c2c1)[C@@H](CO)NCC31CCN(Cc2ccc(F)cc2)CC1	-59
CC(C)(C)c1csc(NC(=O)c2cc(C3CCN(C(=O)C4CCCC4)CC3)no2)n1	9
N#Cc1c(N)nc(SCc2ccccc2)c(C#N)c1-c1ccccc1	-49
O=C(c1ccccc1)N1C[C@H]2[C@@H](c3ccccc31)[C@@H](CO)N2Cc1ccccn1	1
C[C@@H]1CN([C@@H](C)CO)C(=O)CCCn2cc(nn2)CO[C@H]1CN(C)C(=O)CCC(F)(F)F	238
Cc1ccc(S(=O)(=O)NCc2nc(-c3cccc(Cl)c3)oc2C)c(C)c1	68
COc1cccc(-c2ccc([C@@H]3[C@@H](CO)N4C(=O)CN(C(=O)c5cccnc5)C[C@H]34)cc2)c1	-5
CCCC(=O)Nc1ccc2c(c1)CCC(=O)N2CCC	59
CCOC(=O)C(Cc1cc(F)cc2c1OCOC2)(NC(C)=O)C(=O)OCC	-13
CCn1cncc1CNC(=O)c1coc(COc2cccc(F)c2F)n1	0
O=C1CN(C(=O)c2coc(CN3CCN(Cc4ccccc4)CC3)n2)CCCN1	0
CCc1cnc(N2[C@@H](C#N)[C@@H](c3ccc(C4=CCCCC4)cc3)[C@@H]2CO)s1	-22
CSc1nsc(SC)c1-c1nn[nH]n1	1

# Reprinted from the part before: 4 compounds, then new ones.
molecule	Tgondii IFNg
CCn1cncc1CNC(=O)c1coc(COc2cccc(F)c2F)n1	0
O=C1CN(C(=O)c2coc(CN3CCN(Cc4ccccc4)CC3)n2)CCCN1	0
CCc1cnc(N2[C@@H](C#N)[C@@H](c3ccc(C4=CCCCC4)cc3)[C@@H]2CO)s1	-22
CSc1nsc(SC)c1-c1nn[nH]n1	1
O=S(=O)(CCS(=O)(=O)c1cccs1)c1ccc(Cl)cc1	-52
CCCCC1C=CCN1C(=O)C1CCN(Cc2ccco2)CC1 (stereo not given)	2
COc1cccc(S(=O)(=O)N2CCCCN3[C@H](C2)[C@H](c2ccc(C#CCC(C)C)cc2)[C@@H]3CO)c1	-70
Cc1ccccc1C(=O)N1CCC(C)(C(=O)NCc2ccc(F)cc2F)CC1	-47
CCOCC1CN(C(=O)c2cccs2)Cc2nn(C)cc21 (stereo not given)	-2
COC(=O)CSC(=O)N/C=C/c1ccsc1	-22
CN(C)CCN1CCC2O[C@H](COCC(=O)N3CCCC3)CCC21 (stereo not given in full)	3
COCC1CN(C(=O)c2ccoc2)Cc2ncn(CC3CC3)c21 (stereo not given)	-34
Cc1[nH]cnc1-c1nnc(SCC(=O)O)n1-c1ccccc1C(F)(F)F	0
COc1ccc(-c2nnc(-c3nc(NCc4ccccc4)c4ccccc4n3)o2)cc1	-69
CCCNC(=O)C[C@H]1CC[C@H]2[C@@H](COC[C@@H](O)CN2Cc2ccncc2)O1	53
C=C1/C(=C\C=C2/CCC[C@]3(C)[C@@H]([C@H](C)/C=C/[C@H](C)C(C)(C)O)CC[C@@H]23)C[C@@H](O)C[C@@H]1O	21
CN(C)C(=O)CN1C[C@]23CN(Cc4cnn(C)c4)C[C@@H](C[C@@H]2S1(=O)=O)O3	-108*
COc1cc(C)sc1C(=O)N1CC(c2cccnc2)C1	-53
CCC1(CC)C(=O)N(C)C(=O)NC1=Nc1ccccc1	-44
CNC(=O)CN1CC2(CCN(C(=O)CC3CC3)CC2)COc2ccccc2S1(=O)=O	18
Cc1nc2ncccn2c1C(=O)NCC1(O)CCNC1 (stereo not given)	1
Cc1noc(C)c1CN1CCC2(CC1)CCN(c1ncccn1)C2	-4
COCCn1c2c(ccc1=O)CC(NCc1ccco1)CC2 (stereo not given)	5
Cc1ccc2c(c1)c1c3n2CCNC3CCC1 (stereo not given)	19
Cc1cc(C)c(N2C(=O)C3C(c4ccccc4)C=CC(c4ccccc4)C3C2=O)c(C)c1 (stereo not given)	-99*
CCCNC(=O)NCC1CCCN(Cc2ccco2)C1 (stereo not given)	2
CCn1c(NC(=O)c2ccc(Cl)cc2)nc2ccccc21	33
COc1ccccc1OCc1cc(C(=O)NCCF)n[nH]1	36
CCC(=O)N1C[C@@H](O)COC[C@@H]2O[C@@H](CC(=O)NC)CC[C@H]21	10
CNc1nc(-c2ccnc3c2ccn3C)nc2c1CCC2	-27
N[C@H]1c2ccccc2[C@H]2CN(C(=O)c3cnccn3)C[C@H]21	39
c1ccc(-n2nnnc2N2CCc3nnc(C4CCCO4)n3CC2)cc1 (stereo not given)	-3
O=S(=O)(Oc1cc(Cl)cc(Cl)c1)c1cccc2nsnc12	-7
CCOc1ccc(C(=O)N2CCC3(CC2)Nc2cc(OC)ccc2-n2cccc23)cc1	39

# The final 5 records of the part above lead into the next:
molecule	Tgondii IFNg
CNc1nc(-c2ccnc3c2ccn3C)nc2c1CCC2	-27
N[C@H]1c2ccccc2[C@H]2CN(C(=O)c3cnccn3)C[C@H]21	39
c1ccc(-n2nnnc2N2CCc3nnc(C4CCCO4)n3CC2)cc1 (stereo not given)	-3
O=S(=O)(Oc1cc(Cl)cc(Cl)c1)c1cccc2nsnc12	-7
CCOc1ccc(C(=O)N2CCC3(CC2)Nc2cc(OC)ccc2-n2cccc23)cc1	39
CC(C)CCNC(=O)c1nc(-c2cccc(F)c2)n2c1CCCCC2	-42
C=CCN1C(=O)C2(NCCc3c2[nH]c2ccccc32)c2cc(Br)ccc21 (stereo not given)	i
CCn1ncc(C(=O)NC2CC(C)(C)Oc3cc(OC)ccc32)c1C (stereo not given)	-1
COc1cccc(NC(=O)Nc2ccc3c(c2)C(=O)N(C)C[C@H](OC)[C@@H](C)CN(CC2CC2)[C@H](C)CO3)c1	38
CC(=O)Nc1ccc(Cl)c(C(=O)NCCOc2ccccc2)c1	16
CCOCC(=O)N1CC[C@@H]2CN(c3ccc(C)nn3)CCO[C@H]2C1	7
CC(N)=NCCCC[C@H](N)C(=O)O	15
COc1ccc(-c2nc(Nc3ccc(CN4CCC(C)CC4)cc3)c3ccccc3n2)cc1	-41
CCS(=O)(=O)NC1COCCC12CCN(Cc1cccnc1)CC2 (stereo not given)	-23
Cc1ccc(C(C)CCN2CCN(Cc3cccc(F)c3)C(=O)C2)o1 (stereo not given)	4
Cc1nnsc1CNC(=O)c1ccc(CSc2ccccn2)cc1	4
CN(C)c1ccc2c(c1)CN(C(=O)c1cccnc1)C2c1cnco1 (stereo not given)	4
CC(C)N1CCOCC2(CN(Cc3ccc(F)cc3)CCO2)C1 (stereo not given)	2
CCCCOc1ccc(NC(=O)CN2CCN(CC)CC2)cc1	-38
CN(C)CCN1CCOC2CCN(C(=O)c3ccc[nH]3)CCC21 (stereo not given)	-23
CC(C)Nc1ccc2nc(C3CCN(CC(=O)O)CC3)nn2c1	1
COc1cc(-c2ccc(N=Nc3ccc4c(S(=O)(=O)O)cc(S(=O)(=O)O)c(N)c4c3O)c(OC)c2)ccc1N=Nc1ccc2c(S(=O)(=O)O)cc(S(=O)(=O)O)c(N)c2c1O	-11&-25
CC(C)c1cc(-c2ccc(C(N)=O)cc2)nc(C(F)(F)F)n1	-41
COC(=O)c1cc(C)nc2c1c(=O)nc(SCc1nc(-c3ccc(OC)cc3)oc1C)n2C1CC1	48
COC(=O)c1cc2n(n1)CCN(Cc1cnn(-c3ccccc3)c1C)C2	12
COc1ccc(-c2ccccc2[C@H]2[C@@H](C#N)N(C(=O)NC3CCCCC3)[C@H]2CO)cc1	-34
Cc1ccc2nc(-c3ccc(N=C4C(=O)Nc5ccccc54)cc3)sc2c1	214
CCn1c(CC2CCN(C(=O)c3cc(C(C)C)nn3C)CC2)n[nH]c1=O	-1
CCOc1ccc(NC(=O)Cn2ncc3c(N(CC)CC)ncnc32)cc1	75
CCC(c1cccnc1)N(C)C(=O)c1ccc2c(c1)N(C)C(=O)CO2 (stereo not given)	-47
Cc1cnc(N2CCC3(CCN(Cc4nccs4)CC3)C2)nc1	-2
Cc1cc(C)c(CN(Cc2cnn(C)c2)CC(C)C)c(C)c1CO	9
COc1ccc(S(=O)(=O)Nc2ccc3c(c2)CC(=O)N([C@@H](C)CO)C[C@H](C)[C@H](CN(C)C(=O)Nc2c(C)noc2C)O3)cc1	49
Cc1nc(CCNC(=O)[C@H]2CCCN2C(=O)c2cccc(F)c2)cs1	12
Cc1noc2nc(C3CC3)cc(C(=O)N3CCCC(N(C)C)CC3)c12 (stereo not given)	-3
O=C(NC1(c2cccc(F)c2)CCCC1)c1cnsc1	-4
C[C@@H]1CCCCO[C@@H](CN(C)S(C)(=O)=O)[C@H](C)CN([C@@H](C)CO)C(=O)c2cc(NC(=O)NC3CCCCC3)ccc2O1	-9
Cc1ncc(-c2ccc(C)c(S(=O)(=O)N[C@@H]3CC[C@@H](N)C3)c2)o1	-4
CC(=O)N1C(C(=O)O)Cc2c([nH]c3ccccc23)C1C (stereo not given)	124
c1ccc2oc(-c3[nH]ncc3CN3CCN(c4nc5ccccc5o4)CC3)cc2c1	16
O=c1ccc2c(n1Cc1cccnc1)CCN(Cc1ccco1)CC2	0
COc1cc(N2CCCC(CO)(Cc3cccc(Cl)c3)C2)ncn1 (stereo not given)	-64
CC(C)Cc1cc(-c2nc3c([nH]2)CC(C)(C)CNC3=O)on1	-3
COC(=O)CN1C(=O)N(CCc2ccccc2)C2(CCN(Cc3cc4ccccc4[nH]3)CC2)C1=O	29
O=C(NC1CCC(n2cnnc2)CC1)C1CC12CCCC2 (stereo not given)	-1
O=C(c1ccccc1C1CCNC1)N1CCCN(C2Cc3ccccc3C2)CC1 (stereo not given)	-2
CC(=O)N1CC2(CCN(C(=O)Cc3ccsc3)CC2)CC1C(=O)O (stereo not given)	8
O=C(O)CSc1nc2cccnc2s1	23
O=C(C[C@H]1CC[C@H](NC(=O)C2CC2)[C@@H](CO)O1)Nc1ccccc1	-21
O=S(=O)(c1ccccc1)N1CCCCN2[C@H](C1)[C@@H](c1ccc(C#CC3CCCC3)cc1)[C@@H]2CO	-41
CS(=O)(=O)N1CC(=O)N2[C@@H](CO)[C@H](c3ccc(C#CCC4CCCC4)cc3)[C@@H]2C1	2
CN(C)C(=O)c1nn(C)c2c1CCN(Cc1nccs1)C2	88
CCc1ccc(NC(=O)C2CCCN2C(=O)Nc2ccc(C)cc2)cc1 (stereo not given)	18
COc1ccc(-c2nc(CCNC(=O)c3cccc(Cl)c3)cs2)cc1	-14
Cc1c2c(nn1Cc1ccccc1)NC(=O)CC2COCc1ccccc1 (stereo not given)	-30
CC1=NN(c2ccccc2)C(=O)C1(O)C1C(=O)c2ccccc2C1=O (stereo not given)	3
COc1cc(C)c(CN2CCN(c3cc(N)nc(N)n3)CC2)cc1C	4
Cc1cc(C)n(C)c(=O)c1C(=O)NCc1cccnc1Oc1ccccc1F	30
Cn1cc(-c2cc3n(n2)CCC(=O)N3CC(=O)NCCCN2CCCC2)c2ccccc21	41
CN(CCn1ccc2ccccc21)C(=O)c1c(O)cccc1O	-42
COc1cccc(CCNC(=O)c2cc3c(c4ccccc4n3C(C)C)n2C(=O)N(C)C)c1	-13
Cc1ccc2c(c1)CN(Cc1ccc(C)s1)C(CN(C)C)CO2 (stereo not given)	-56
c1csc(CN2CCC3(CCCN3CC3CC3)CC2)c1	-4
O=C(C1CC2(CCNCC2)CN1)N(CCc1ccccc1)Cc1cccnc1 (stereo not given)	169
O=C(Cn1nc(-c2ccc(F)cc2)ccc1=O)NCc1ccc2c(c1)OCO2	-5
CCOC(=O)Cn1c(=O)c(C#N)cn(C(C)C)c1=O	-40
CCc1cc(C(=O)NCc2cccnc2Oc2c(C)cccc2C)on1	-22
O=C(CCCCCn1c(=S)[nH]c2cc3c(cc2c1=O)OCO3)N1CCC(O)(c2cccc(C(F)(F)F)c2)CC1	3

# Only part of the results is shown, so the mix of outcomes need not match the whole.
